# Kir21 block = blocks the mouse Kir2.1 inward-rectifier potassium channel. 310,000 tested, 0.85% active. P35561. B-score at 10 µM. AID 1672. HEK293-Kir2.1, FluxOR thallium flux fluorescence; stronger effect = lower value;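 active means fluorescence ratio B-score at or below minus 3 SD of library scores, with starting-brightness B-score within 2 SD, cut at about -4.2 in these data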;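 further: channel flux triggered by added potassium and thallium sulfate stimulus; B-score of peak minus minimum fluorescence over baseline after thallium stimulus; more negative B-score means stronger Kir2.1 block with less thallium influx; some compounds called inactive have numbers as strong as hits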
# Target sequence (P35561 whole entry, looked up): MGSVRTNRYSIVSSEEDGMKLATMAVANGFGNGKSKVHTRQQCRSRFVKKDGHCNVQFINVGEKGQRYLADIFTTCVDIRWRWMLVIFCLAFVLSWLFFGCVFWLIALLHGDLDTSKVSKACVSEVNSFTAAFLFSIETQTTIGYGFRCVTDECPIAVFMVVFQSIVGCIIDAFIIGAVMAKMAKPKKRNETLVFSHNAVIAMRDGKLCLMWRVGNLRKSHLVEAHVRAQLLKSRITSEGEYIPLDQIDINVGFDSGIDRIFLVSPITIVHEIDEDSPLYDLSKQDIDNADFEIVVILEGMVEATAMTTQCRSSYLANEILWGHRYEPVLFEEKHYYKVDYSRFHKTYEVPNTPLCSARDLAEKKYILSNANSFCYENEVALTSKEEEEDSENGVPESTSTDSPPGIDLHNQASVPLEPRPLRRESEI
# An asterisk follows results filed as active. This is a subset; most or all hits stand in other tables.
SMILES,Kir21 block
COc1ccc(CN(Cc2nc3ccccc3c(=O)[nH]2)C(=O)NC2CCCCC2)cc1,0.43
S=C(Nc1ccccc1)N1CCn2cccc2C1c1cccnc1 (stereo unspecified),-0.02
Cc1ccccc1OCC(O)Cn1c(Br)nc2c1c(=O)[nH]c(=O)n2C (stereo unspecified),1.2
CCOc1ccccc1CN1CCNC(=O)C1CC(=O)N(C)Cc1nonc1C (stereo unspecified),-2
COc1ccccc1N1CCN(C(=O)c2cc(-c3ccc(C)cc3)on2)CC1,-0.47
O=C(CSc1nnc(Cc2ccccc2)n1-c1cccc(Cl)c1)N1CCOCC1,-0.39
COc1ccc(C(=O)N2CCN(c3ccc(NC(=O)Cc4ccccc4)cc3)CC2)cc1,-1.3
CCc1ccc(C2c3[nH]c4ccccc4c3CCN2C(=O)CN2CCN(CC)CC2)cc1 (stereo unspecified),-0.95
Cc1ccc(C(=O)NC(C)CCc2ccccc2)cc1[N+](=O)[O-] (stereo unspecified),1.4
CCOC(=O)c1c(-c2ccccc2)oc2cc(CN(C)C)c(O)c(CN(C)C)c12,0.02
Cc1ccc(-n2nc3c(=O)n(C(C)C(=O)NCc4ccco4)nc(C)c3c2C)cc1 (stereo unspecified),-0.62
Cn1c(=O)n(C)c2cc(S(=O)(=O)N3CCOCC3)ccc21,-0.78
CC(C)OCCCNc1nc2c(c(=O)n(Cc3ccccc3F)c(=O)n2C)n1C,-0.26
Cn1ncc(Cl)c1C(=O)NCC1CCCO1 (stereo unspecified),-1.4
CCCc1nc2cc(CC(=O)OC)ccc2o1,0.07
Cc1ccc(C(C)C)c(OCC(=O)NNC2=CC(=O)CC(C)(C)C2)c1,-0.56
CC(NC(=O)C1CCN(S(=O)(=O)c2ccc3nc4c(c(C(=O)O)c3c2)CCCC4)CC1)c1ccccc1 (stereo unspecified),1.3
O=C(NCc1ccc(OC(F)(F)F)cc1)C1CC(c2ccccc2C(F)(F)F)=NO1 (stereo unspecified),1.1
COC(=O)c1ccc(C(=O)Nc2ccc3nc(-c4cccnc4)[nH]c3c2)cc1,0.37
CC(=O)N/C(=N\OCc1ccccc1Cl)c1nonc1NC(C)=O,0.43
COc1ccccc1Oc1ccc(S(=O)(=O)N2CCOCC2)cc1S(=O)(=O)N1CCOCC1,-1.9
CCCCN(C(=O)/C=C/c1ccco1)c1c(N)n(CC(C)C)c(=O)[nH]c1=O,-1
O=C(c1ccc([N+](=O)[O-])o1)N1CCOCC1,0.22
CCC1CO/C(=C(\C(=C(Cl)Cl)N2CCOCC2)[N+](=O)[O-])N1 (stereo unspecified),2.2
O=C(CCn1c(=O)sc2ccccc21)NCc1ccccc1,-0.23
Cc1cc(C(=O)COC(=O)c2ccc(Cl)c(S(N)(=O)=O)c2)c(C)n1CC1CCCO1 (stereo unspecified),0.3
Cc1ccc(-c2nc(-c3ccccc3)no2)cc1,-0.51
CN1C(=S)SC(/[N+]([O-])=C/c2c(F)cccc2Cl)C1(C)C (stereo unspecified),-0.02
CCN1CCC[C@H]1CNC(=O)c1cc(S(N)(=O)=O)ccc1OC,1.8
CS(=O)(=O)c1ccccc1-c1nnc(NC(=O)CCS(=O)(=O)c2ccc(Cl)cc2)o1,-0.01

# A section taken from the entries so far, as a working copy:
SMILES,Kir21 block
CCN1CCC[C@H]1CNC(=O)c1cc(S(N)(=O)=O)ccc1OC,1.8
CS(=O)(=O)c1ccccc1-c1nnc(NC(=O)CCS(=O)(=O)c2ccc(Cl)cc2)o1,-0.01

# (cont.)
SMILES,Kir21 block
CN(CC(=O)Nc1c(Cl)cccc1Cl)C(=O)CCC1CCCC1,0.47
Cc1nc(N(C)C)c2sc(=S)n(-c3ccccc3)c2n1,-0.83
CCOC(=O)C1CCN(c2ccc(-c3cccs3)nn2)CC1,-0.39
COc1cc(NC(=O)CSc2nnc(Cn3nnc4ccccc43)n2C)cc(OC)c1,-0.16
Cc1nc2ccc(-c3nc4cc(N)ccc4o3)cc2[nH]1,1.1
O=C(COC(=O)CC(c1ccccc1)c1ccccc1)Nc1c(F)cccc1F,-0.77
CCOc1ccccc1NC(=O)CCS(=O)(=O)c1cccs1,-0.53
Cc1ccc(NC(=O)CSC2=C(C#N)C(c3ccc4c(c3)OCO4)C3=C(CCCC3=O)N2)c(C)c1 (stereo unspecified),-0.3
Fc1ccccc1/C=N/Nc1nc(-c2ccccn2)nc2ccccc12,-0.14
CCOc1ccc(OCC)c(NC(=O)CN2CCN(c3ccc(C)cc3C)CC2)c1,1.4
Cc1cc(Oc2ccc(C#N)cc2)nc(N2CCOCC2)n1,0.16
Cc1ccc2cc(CN(CC3CCCO3)C(=O)C(C)C)c(=O)[nH]c2c1 (stereo unspecified),0.07
CC(C)CC(COCc1cccc(Cl)c1)N1CCN(C(=O)c2cccc(C(F)(F)F)c2)CCC1=O (stereo unspecified),-1.5
CC(=O)c1ccc(NC(=O)C2CCC(C)(C(=O)O)C2(C)C)cc1 (stereo unspecified),4
N#Cc1ccc(C(=O)N2CCN(S(=O)(=O)c3ccc(Br)s3)CC2)cc1,-2.1
CSc1nc(-c2ccco2)nn1C(=O)CCc1ccccc1,0.11
CCCOC(=O)Cn1c(=O)c2cc3c(=O)n(CC(=O)OCCC)c(=O)c3cc2c1=O,-1.4
Cc1nonc1OCCCNc1ccc([N+](=O)[O-])cc1Cl,1.1
Cc1ccc(C(=O)N(CCN2CCCCC2)CC2CCCN(C3CCCC3)C2)s1 (stereo unspecified),0.51
O=C(CCc1ccc(S(=O)(=O)NCCc2ccccc2)cc1)NCc1ccc2c(c1)OCO2,-0.42

# Compounds above with a furan ring, fused or not, in the order listed:
SMILES,Kir21 block
CCOC(=O)c1c(-c2ccccc2)oc2cc(CN(C)C)c(O)c(CN(C)C)c12,0.02
Cc1ccc(-n2nc3c(=O)n(C(C)C(=O)NCc4ccco4)nc(C)c3c2C)cc1 (stereo unspecified),-0.62
CCCCN(C(=O)/C=C/c1ccco1)c1c(N)n(CC(C)C)c(=O)[nH]c1=O,-1
O=C(c1ccc([N+](=O)[O-])o1)N1CCOCC1,0.22
CSc1nc(-c2ccco2)nn1C(=O)CCc1ccccc1,0.11

# More compounds follow:
SMILES,Kir21 block
CCN(CCCNC(=O)CCn1c(=O)[nH]c2ccccc2c1=O)c1ccccc1,0.42
O=C(Nc1ccccc1C(=O)OCn1nnc2ccccc2c1=O)c1ccco1,0.15
CSc1ccccc1NC(=O)CN(Cc1ccccc1)S(C)(=O)=O,-3.6
O=C(COc1ccc([N+](=O)[O-])cc1)Nc1ccc(N2CCN(C(=O)c3ccco3)CC2)cc1,0.09
O=C(CCSc1nnc(-c2ccco2)o1)Nc1ccc(Cl)cc1,-0.48
COc1cccc(C2N(c3cccc(Cl)c3)C(=O)C3CCCN32)c1 (stereo unspecified),-1.4
O=C(CN(C(=O)c1csnn1)c1cccc(Cl)c1)NC1CCCC1,1.9
CC1CCCCC1NC(=O)COC(=O)c1c2c(nc3ccccc13)/C(=C/c1ccco1)CC2 (stereo unspecified),-0.37
Cc1ccc(CC(SCc2ccccc2)C(=O)O)cc1C (stereo unspecified),0.95
COc1ccc(NC(=O)CSc2ccccc2)c([N+](=O)[O-])c1,0.03
CCc1ccc(NC(=O)C(=O)N/N=C(\C)CC(=O)Nc2ccccn2)cc1,-1.8
O=C(NC(=S)Nc1ccccc1)C1CCCCC1,0.35
COc1ccccc1Cn1c(=O)c2ccccc2n2c(SCC(=O)N3CCCCC3)nnc12,-0.66
CC(=O)c1ccc(OC(=O)Cc2cccc3ccccc23)cc1,-1.7
COc1ccc(OCc2cccc(C(=O)Nc3cc(C)on3)c2)cc1,2.5
CSCCC(NS(=O)(=O)c1ccc(F)cc1)C(=O)NCc1ccc(S(N)(=O)=O)cc1 (stereo unspecified),-0.42
Cc1ccccc1NC(=S)Nc1ccc2cn[nH]c2c1,1.1
CCOC(=O)C1=C(C)N=C2c3ccccc3C(=O)C2C1c1ccc(C)cc1 (stereo unspecified),0.22
C=C(C)c1cccc(C(C)(C)NC(=O)Nc2ccc3[nH]c(=O)[nH]c3c2)c1,1.9
CCCCC(=O)Nc1cc(OCC)c(NC(=O)c2ccccc2[N+](=O)[O-])cc1OCC,-0.35

# A second format for 5 compounds above:
SMILES	Kir21 block
COc1ccccc1Cn1c(=O)c2ccccc2n2c(SCC(=O)N3CCCCC3)nnc12	-0.66
CC(=O)c1ccc(NC(=O)C2CCC(C)(C(=O)O)C2(C)C)cc1 (stereo unspecified)	4
CCc1ccc(NC(=O)C(=O)N/N=C(\C)CC(=O)Nc2ccccn2)cc1	-1.8
CCOc1ccccc1CN1CCNC(=O)C1CC(=O)N(C)Cc1nonc1C (stereo unspecified)	-2
CS(=O)(=O)c1ccccc1-c1nnc(NC(=O)CCS(=O)(=O)c2ccc(Cl)cc2)o1	-0.01

# (further entries)
SMILES,Kir21 block
COc1ccc([C@@H]2[C@@H]3C(=O)N(C(C)(C)C)C(=O)[C@@H]3[C@]3(C)C(=O)N(c4ccccc4)C(=O)N23)cc1,-0.72
CCOC(=O)c1cnn(CCOC(=O)C(C)(C)C)c1NC(=O)C(C)(C)C,1.4
COc1cc(C2C3=C(Nc4ncnn42)c2ccccc2CC3)cc(OC)c1OC (stereo unspecified),2.6
O=Cc1c(NCCCN2CCCC2=O)c2ccccc2[nH]c1=O,-0.54
O=C(/C=C/c1ccco1)NCC(=O)N/N=C/c1ccc(Cl)cc1,-0.01
CC(=O)Nc1cccc(/C(C)=N/NC(=O)c2ccccc2Cl)c1,-1.4
COc1ccccc1NC(=O)CSc1nncn1-c1ccccc1,1.4
Cc1sc2nnn(CC(=O)N3CCN(C(=O)c4ccco4)CC3)c(=O)c2c1C,0.1
CCOC(=O)N1CC=C2C(C#N)=C(N)C(C#N)(C#N)[C@H](c3ccc(OC(C)C)c(OCC)c3)[C@H]2C1,0.97
COc1ccc(NC(=O)c2ccc3c(c2)C(=O)N(Cc2cccnc2)C3=O)c(OC)c1,1.7
CCSCc1nnc(SCC(=O)Nc2ccc(F)cc2)n1CC,-0.67
COc1cc(C(=O)NCc2nnc(SCC(=O)N3CCCCC3)o2)cc(OC)c1OC,-2.2
CCOC(=O)c1sc(Nc2nc3ccc(OC)cc3s2)cc1C,0.35
Cc1cc(-c2nc3ncccc3o2)ccc1NC(=S)NC(=O)c1ccco1,-0.27
CC(C)CC(NC(=O)C(CC(C)C)NC(=O)C(Cc1ccc(OCc2ccccc2)cc1)NC(=O)OC(C)(C)C)C(N)=O (stereo unspecified),-0.22
COc1ccc(CCN2C(=O)C3CC=C(C)CC3C2=O)cc1OC (stereo unspecified),1.5
Cc1ccc(OCC(=O)Nc2ccc(N3CCOCC3)cc2)cc1,0.64
Cc1ccc(CN2C(=O)CNC2=S)cc1,1
C[C@H](NC(=O)CCC1CCC(=O)N1)c1ccccc1 (stereo partly specified),1.5
CC(C)c1ccc(NC(=O)CCNC(=O)N2CC(=O)Nc3ccccc32)cc1,0.76

# Filtered by structure, those above with a COOH group.
SMILES,Kir21 block
CC(NC(=O)C1CCN(S(=O)(=O)c2ccc3nc4c(c(C(=O)O)c3c2)CCCC4)CC1)c1ccccc1 (stereo unspecified),1.3
CC(=O)c1ccc(NC(=O)C2CCC(C)(C(=O)O)C2(C)C)cc1 (stereo unspecified),4
Cc1ccc(CC(SCc2ccccc2)C(=O)O)cc1C (stereo unspecified),0.95

# Additional compounds follow:
SMILES,Kir21 block
CC(C)Oc1ccc(C(=O)OCC(=O)N2CCCc3ccccc32)cc1,0.21
C(=N\N1CCOCC1)/c1cn(-c2ccccc2)nc1-c1ccccc1,2.3
CC(=O)NS(=O)(=O)c1ccc(NC(=O)/C=C/c2cn(-c3ccccc3)nc2-c2ccccc2)cc1,0.03
CN(Cc1ccccc1NCC(=O)Nc1ccccc1C#N)C1CCCCC1,0.01
COCCNC(=O)Cn1cc(/C=C(\C#N)C(=O)NC2CC2)c2ccccc21,-0.61
O=C(C1CCCN(S(=O)(=O)c2ccccc2)C1)N1CCN(c2ncccn2)CC1 (stereo unspecified),1.1
CCS(=O)(=O)N1Cc2ccccc2CC1C(=O)Nc1ccc(OC)cc1OC (stereo unspecified),1.5
Cc1cc(-c2nn(-c3ccccc3F)cc2CN2CCCC(C(N)=O)C2)c(C)s1 (stereo unspecified),0.04
COc1ccc(C2=C(C)CC(C)(C)NC2=O)cc1OC,0.7
Cn1nc(-c2ccc(C(=O)O)cc2)c2ccccc2c1=O,0.43
CC(CCc1ccccc1)N1CCN(C)CC1 (stereo unspecified),0.18
CCc1cc2c(CN3CCN(CC)CC3)cc(=O)oc2cc1O,-0.81
COc1cc(CCC(=O)OCC(=O)Nc2cccc(S(=O)(=O)N(C)C)c2)cc(OC)c1OC,0.27
O=S(=O)(Nc1c(F)cccc1F)c1ccc2c(c1)OCCO2,1.4
C=CCn1c(SCC(=O)Nc2ccc(-c3nc4ccc(C)cc4s3)cc2)nnc1-c1ccccc1,-1.2
Cc1oc(-c2cccs2)nc1CN1CC[C@@](O)(c2ccccc2)[C@H]2CCCC[C@@H]21,-1
CCCCN(C(=O)c1cc(-c2ccco2)nc2ccccc12)c1c(N)n(CCCC)c(=O)[nH]c1=O,0.74
CCC(C)N=Cc1c(NCc2ccco2)nc2c(C)cccn2c1=O (stereo unspecified),0.74
CC(C)(C)n1nnnc1C(c1ccccc1F)N(Cc1ccco1)CC1CCCO1 (stereo unspecified),-2
O=C(CCl)NCCNC(=O)c1cc(OCC(F)(F)F)ccc1OCC(F)(F)F,-0.63
O=C(CCC(=O)Nc1ccccc1)NNC(=O)c1ccccc1Cl,0.32
CCN(c1ccccc1)c1nc(=O)c2cccnc2s1,-0.32
COc1cc(NC(=O)c2ccc(N)nc2)cc(C(=O)Nc2cccc(C(F)(F)F)c2)c1,2.5
COc1ccc(-n2c(C)c(C(=O)O)c3cc(OC)c4ccccc4c32)cc1,0.81
CCOC(=O)c1ccc(OCCOc2ccccc2C)cc1,0.29
COc1ccc(C(=O)Nc2ccc3ncccc3c2)cc1,-0.02
CC(C)(C)Nc1c(-c2cccs2)nc2ccccn12,-2.7
N#C/C(=C\Nc1ccccc1SC(F)(F)F)c1nc(-c2ccc(F)cc2)cs1,-0.19
O=C(c1ccccc1)c1ccc(N2CCOCC2)c(F)c1,-0.31
COC(=O)n1ccc(C(=O)Nc2ccccc2F)n1,0.44
COc1ccccc1OCC(=O)Nc1ccc(S(=O)(=O)Nc2nc(C)cc(C)n2)cc1,2
